Compound activity from PubChem BioAssay.
HNF4A DNA FP: change in binding of human HNF4 alpha to DNA. activity change, % at 10 µM. AID 1224865. 360,000 compounds, 0.3% hits. P41235. HNF4a-FITC DNA binding, fluorescence polarization, 1 h; in the data active = activity change above about 30%, passing the limit was not always enough;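 note: controls were the assay level and a saturating level of protein; the project sought stronger binding though the title names inhibitors; some compounds called inactive have numbers as strong as hits; positive values seem to mean higher polarization but the record does not say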
Target sequence (P41235 whole entry, looked up): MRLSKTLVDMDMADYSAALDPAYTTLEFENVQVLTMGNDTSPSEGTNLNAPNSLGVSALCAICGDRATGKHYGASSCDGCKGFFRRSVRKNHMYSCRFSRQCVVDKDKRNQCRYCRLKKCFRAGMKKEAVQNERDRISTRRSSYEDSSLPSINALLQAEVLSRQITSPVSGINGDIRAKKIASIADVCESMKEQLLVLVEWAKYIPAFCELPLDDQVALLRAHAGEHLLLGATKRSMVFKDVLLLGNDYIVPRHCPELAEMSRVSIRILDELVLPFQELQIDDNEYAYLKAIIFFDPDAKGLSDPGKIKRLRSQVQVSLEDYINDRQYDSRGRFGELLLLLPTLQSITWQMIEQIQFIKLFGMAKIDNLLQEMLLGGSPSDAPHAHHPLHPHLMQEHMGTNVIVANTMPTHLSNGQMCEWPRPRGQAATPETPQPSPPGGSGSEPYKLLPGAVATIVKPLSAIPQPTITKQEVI
ALR H2O2 inh: inhibitors of human sulfhydryl oxidase ALR; purified ALR, DTT oxidation, H2O2 HRP-luminol luminescence; P55789; inhibition, % (no concentration beside the values); 290,000 compounds, 3.8% hits;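 active = mean and each replicate at 75% or more; inconclusive = only one of the two met; inactive = neither met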;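 note: stock transfer was 7.5 nL into about 7.5 µL; 0% = neutral wells and 100% = wells with inactivated enzyme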
Target sequence (P55789 whole entry, looked up): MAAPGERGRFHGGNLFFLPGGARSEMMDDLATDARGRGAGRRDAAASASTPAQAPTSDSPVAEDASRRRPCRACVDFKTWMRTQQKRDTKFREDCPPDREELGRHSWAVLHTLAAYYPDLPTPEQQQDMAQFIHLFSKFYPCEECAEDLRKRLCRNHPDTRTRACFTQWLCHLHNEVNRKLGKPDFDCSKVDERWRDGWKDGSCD
Beta2AR agonist: agonists of human beta-2 adrenergic receptor inducing internalization. Am2.2-beta2AR cells, FAP receptor internalization, flow cytometry; reference of the scale not given here. response, % (no concentration beside the values). 340,000 compounds, 0.43% hits;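 active = response above a set limit, near 3 SD of response in nonfluorescent compounds, cut at about 42% in these data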;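 note: stock transfer was 100 nL into about 11 µL; a reference agonist was the positive control; negative values mostly stem from fluorescent compounds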
Vif TR-FRET: HIV-1 Vif–A3G interaction blockers – biochemical, TR-FRET, GST-Vif 1-94, biotin-A3G peptide, dose response retest, primary screen (AID 1117319). TR-FRET GST-Vif / biotin-A3G peptide binding; higher % means a stronger effect; test concentration not given here; strong numbers were not always called active. inhibition, %, or IC50 in µM where a hit was titrated. 260,000 compounds, 0.57% hits;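 active = above the screen mean plus three standard deviations and confirmed in dose response; inconclusive = results disagree or hit not tested in dose response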;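 note: Vif residues 1-94 fused to GST binding biotinylated APOBEC3G peptide 110-148; 0% = full assay without inhibitor and 100% = GST in place of GST-Vif; retest series ran down from 100 µM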
RanGTP-Impb inh: inhibitors of RanGTP-importin-beta interaction, primary screen, biochemical, FRET, CFP-Ran, YFP-importin-beta, homogeneous; cell-free CFP-Ran/YFP-importin-beta FRET ratio; inhibition, % (concentration not given with the values); 300,000 compounds, 1.1% hits;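 active = most replicates above 15%; inconclusive = exactly half above 15%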;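 note: 0% = DMSO wells and 100% = Ran loaded with GDP instead of GTP; wells of about 40 µL received 100 nL stock; the first replicate is given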
Calb FLC: affects C. albicans growth with fluconazole | C. albicans CaCi-2 (fluconazole-resistant clinical isolate) + fluconazole, Alamar Blue growth, 48 h | growth inhibition, % (test concentration not listed) | 300,000 compounds, 0.57% hits | AID 1979;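 active = most replicates above 75%; inconclusive = exactly half above 75%; inactive = most below 75%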;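 note: all wells also contain fluconazole at 8 µg/ml as a sub-toxic cotreatment; 0% = median of DMSO wells and 100% = median of geldanamycin control wells; wells of about 8 µL received 7.5 nL stock; the first replicate is given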
LANA-H2B inh: blocks KSHV LANA binding to histone H2A/H2B; Q9QR71; cell-free LANA-H2A/H2B peptide, fluorescence polarization; inhibition, % (test concentration not listed); 320,000 compounds, 0.6% hits; in the data active = inhibition mostly above about 10%, no sharp cut-off; inactive = mostly below about 6.7%;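 note: stock transfer was 7.5 nL into about 10 µL; 0% = median of vehicle wells and 100% = median of positive control wells; one replicate is shown; the record names a cut of 25% in any replicate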
Numbers without * were called inactive; ? = inconclusive; / = no result given; & = joins results of further samples.

SMILES	HNF4A DNA FP	ALR H2O2 inh	Beta2AR agonist	Vif TR-FRET	RanGTP-Impb inh	Calb FLC	LANA-H2B inh
CSCCC1NC(=O)N(CC(=O)Nc2c(Cl)cc(Cl)cc2Cl)C1=O (stereo not given)	4.0	-7	-5	3%	-2.3	1	4.9
CCOc1ccc(/C=C/C(=O)NC2CCCCC2)cc1	1.4	-1	0	-1%	2.6	6	-1.1
O=C1c2ccsc2SCCN1Cc1cccc(F)c1	0.0	4	-11	3%	2.9	-30	-0.4
O=C(NCCCCc1ccccc1)NC[C@@H]1CC[C@@H](Cc2ccc(-c3ccccc3)cc2)O1	-0.9	/	0	0%	/	/	/
O=C(N/N=C/C=C\c1ccccc1[N+](=O)[O-])c1cccs1	-2.2	-10	-21	9%	1.1	-12	-4.4
O=C1N=C(N2CCCCC2)SC1=C1CCCCC1	-0.5	-12	3	27%	5.2	-7	2.2
O=c1c(C=NCCCO)c(-c2ccccc2)[nH]n1-c1nc2ccccc2s1	0.0	3	-23	/	-2.3	1	-1.5
Nc1c(C(=O)NCc2cccnc2)sc(=S)n1-c1ccccc1	0.6	41	1	1%	?	-11	1.0
CC(=O)c1ccc(N2CCN(C(=O)c3nn(C)c4c3CS(=O)(=O)c3ccccc3-4)CC2)cc1	2.9	0	1	/	-1.8	-9	2.7
COc1ccc(Br)cc1C1CC(=O)C(C)C(c2cc(Br)ccc2OC)N1 (stereo not given)	-0.7	-5	-9	2%	2.4	3	4.1
CCn1nc(C)c(/C=N/NC(=O)Cc2ccc(Cl)cc2)c1C	-0.4	/	-2	-1%	-1.3	-4	/
FC(F)(F)c1ccc(Sc2nnc(-c3cccs3)n2CC2CCCO2)nc1 (stereo not given)	-0.4	-3	-11	1%&0%	-1.0	-2	4.6
O=C(NC1CC1)c1sccc1-n1cccc1	3.6	100*	-1	2%	-2.8	-6	-1.1
CC(C)NC(=O)CSc1nc(-c2cccs2)cc(-c2ccccc2)c1C#N	-1.2	-4	-19	-16%	8.4	10	5.5
FC(F)(F)c1ccc(-c2n[nH]c(=S)o2)nc1	1.5	13	-3	-11%	-1.1	-6	5.9
CCCC1CCC(C(=O)Nn2cnc3ccccc3c2=O)CC1 (stereo not given)	26	-1	6	2%	5.8	-2	-0.5
CCN(CC)S(=O)(=O)c1ccc(O)c(NC(=O)c2cc(-c3cc(OC)c(OC)c(OC)c3)nc3ccccc23)c1	3.1	-6	18	/	-3.8	-3	-3.2
O=C(Nc1cccc(S(=O)(=O)N2CCOCC2)c1)c1cccc(S(=O)(=O)N2CCCCC2)c1	-0.8	/	-3	-4%	/	/	/
CCOC(=O)C1=C(COC(=O)CCOc2cccc(C)c2)NC(=O)NC1C (stereo not given)	-2.2	3	7	/	?	13	2.7
O=C(Nc1nnc(SCc2ccccc2)s1)c1cccc([N+](=O)[O-])c1	3.2	/	7	/	-5.7	59	1.4
COCCCNC(=S)N(CCCO)Cc1cc2cc3c(cc2[nH]c1=O)OCCO3	3.5	-1	-1	/	-0.1	-5	-3.5
COc1ccccc1NC(=O)c1cc(S(=O)(=O)NCc2ccccc2)ccc1F	0.0	-3	-1	0%	4.9	-11	-3.6
CCCN(C(=O)c1ccccc1Cc1ccccc1)C1CCS(=O)(=O)C1 (stereo not given)	3.3	-2	-1	11%	3.6	6	2.4
Cc1ccc(NC(=O)CS(=O)CC(=O)NCCCc2ccccc2)cc1Cl (stereo not given)	-2.4	-16	13	-1%	-1.8	60	-0.2
Cc1ccc(-n2[nH]c(C)c(/C=N/n3c(C)nc4ccccc4c3=O)c2=O)cc1	1.6	9	4	27%	6.4	-7	-0.9
NS(=O)(=O)c1ccc(NC(=O)COc2ncnc3sccc23)cc1	6.6	-4	-4	/	0.9	4	-5.7
Cc1ccc(C(C(=O)NCC2CCCO2)N(C(=O)c2snc(C(N)=O)c2N)c2ccc(F)cc2)o1 (stereo not given)	3.9	-2	-3	/	0.1	-20	3.0
CC/C(C)=N/Nc1ccc(S(=O)(=O)N2CCCC2)cc1[N+](=O)[O-]	1.9	-4	2	1%	-4.1	3	4.9
O=Cc1ccc(OC2OCCOC2Oc2ccc(C=O)cc2)cc1 (stereo not given)	0.8	1	1	-5%	4.0	-7	-1.3
N#CC1=C(N)Oc2ccccc2C12C(=O)Nc1n[nH]c(-c3ccccc3)c12 (stereo not given)	-1.5	-4	-5	2%	-1.7	1	0.9
Cc1oc(-c2cc3c(cc2Cl)OCO3)nc1CN1CCCC1c1ccc(F)cc1 (stereo not given)	0.3	-27	4	-4%	1.0	0	1.2
COc1cc(/C=N/n2c(-c3ccccc3)n[nH]c2=S)ccc1O	1.3	99*	11	8%	-0.9	3	2.7
COc1cc(NC(=O)c2onc(C)c2Cl)cc(OC)c1OC	-2.0	7	-3	1%	3.0	-4	-0.6
CC(=O)Nc1ccc(S(=O)(=O)NCCC(=O)NCC2COc3ccccc3O2)cc1 (stereo not given)	1.9	4	1	-9%	9.0	-3	11
Cc1ccc(C)n1-c1ccc(C#N)cn1	-2.9	/	6	/	2.7	9	/
CC(=O)N1CCC(=NNc2nc3ccccc3s2)CC1	2.2	?	-1	10%	7.0	99*	-7.2
O=C1CSC(=S)N1/N=C/c1ccc(O)c(O)c1O	-25	/	3	/	9.6	33	2.3
COC(=O)CSc1nc(C)c2c(n1)CCCC2	1.6	0	4	-6%	2.1	-3	-4.2
CN1C(=O)CC(P(=O)(c2ccccc2)c2ccccc2)N(C)C1=O (stereo not given)	-0.3	-9	8	8%	-0.3	-10	5.7
O=C1Nc2ccccc2N=C(c2ccccc2)C1N1CCOCC1 (stereo not given)	1.6	-2	-3	-5%	5.2	-3	-7.7

Record cards (already shown). Order of values: HNF4A DNA FP	ALR H2O2 inh	Beta2AR agonist	Vif TR-FRET	RanGTP-Impb inh	Calb FLC	LANA-H2B inh
Results for CCCN(C(=O)c1ccccc1Cc1ccccc1)C1CCS(=O)(=O)C1 (stereo not given) → 3.3	-2	-1	11%	3.6	6	2.4
Results for CC(=O)Nc1ccc(S(=O)(=O)NCCC(=O)NCC2COc3ccccc3O2)cc1 (stereo not given) → 1.9	4	1	-9%	9.0	-3	11
Results for O=C1Nc2ccccc2N=C(c2ccccc2)C1N1CCOCC1 (stereo not given) → 1.6	-2	-3	-5%	5.2	-3	-7.7

Retrieved one by one from the list above:
SMILES	HNF4A DNA FP	ALR H2O2 inh	Beta2AR agonist	Vif TR-FRET	RanGTP-Impb inh	Calb FLC	LANA-H2B inh
Cc1ccc(C(C(=O)NCC2CCCO2)N(C(=O)c2snc(C(N)=O)c2N)c2ccc(F)cc2)o1 (stereo not given)	3.9	-2	-3	/	0.1	-20	3.0
CCCC1CCC(C(=O)Nn2cnc3ccccc3c2=O)CC1 (stereo not given)	26	-1	6	2%	5.8	-2	-0.5
FC(F)(F)c1ccc(-c2n[nH]c(=S)o2)nc1	1.5	13	-3	-11%	-1.1	-6	5.9
CC/C(C)=N/Nc1ccc(S(=O)(=O)N2CCCC2)cc1[N+](=O)[O-]	1.9	-4	2	1%	-4.1	3	4.9
COc1cc(NC(=O)c2onc(C)c2Cl)cc(OC)c1OC	-2.0	7	-3	1%	3.0	-4	-0.6

New compounds follow.
SMILES	HNF4A DNA FP	ALR H2O2 inh	Beta2AR agonist	Vif TR-FRET	RanGTP-Impb inh	Calb FLC	LANA-H2B inh
Cc1noc(NS(=O)(=O)c2ccc(NC(=O)CSc3nc4c(cc3C#N)CCC4)cc2)c1C	-5.1	98*	4	6%	-0.3	1	0.1
COc1ccc(-c2cccc([C@H]3[C@@H]4C=CCC[C@@]4(C)C(=O)N3Cc3ccccc3)c2)cc1	-4.0	/	8	/	?	3	6.4
COc1ccc2ccccc2c1C1NC(=O)c2ccccc2N1 (stereo not given)	-2.0	/	30	-3%	/	/	/
Cc1cccc(NC(=O)C2CCCN(C(=O)Nc3ccc(F)cc3)C2)c1C (stereo not given)	0.3	-3	1	/	0.4	5	1.1
O=C(Nc1nc2ccccc2n1CCOc1ccc(Cl)cc1)c1ccco1	-1.5	0	-13	3%	0.9	4	5.0
Cc1ccc(C(=O)NC2CCN(CCCC(=O)c3ccc(F)cc3)CC2)cc1	4.3	/	-4	/	5.9	-10	2.1
COc1cccc(Oc2ccc(C(F)(F)F)cc2N)c1	1.6	2	12	18%	-5.8	-12	-0.5
CCc1cc(=O)oc2cc(OCC(=O)N3CC[C@@]4(O)CCCC[C@H]4C3)ccc12	4.8	-49	-11	/	1.1	-2	1.9
COc1ccc2c(c1)c(C(=O)N/N=C/c1ccc(Cl)cc1)c(C)n2C	-0.8	/	-2	10%	3.9	0	-0.1
Cc1ccc(C)c(S(=O)(=O)N=Nc2c(O)[nH]c3ccccc23)c1	5.7	-12	-2	3%	-3.3	-42	2.2
Clc1ccc(-c2nnc(NC3=NCCCCC3)o2)cc1	0.2	-5	-11	-4%	-0.8	-7	0.6
Cc1oc(C)c(C(=O)Nc2ccc(CC(=O)O)cc2)c1C(=O)Nc1ccc(CC(=O)O)cc1	-1.6	-1	-5	7%	0.0	-3	-2.0
CCCCNC(=O)Oc1ccc(C(=O)N2c3ccccc3NC(=O)C2C)cc1 (stereo not given)	-0.6	-2	-3	1%	2.4	-7	1.2
O=C(NCC(O)c1ccccc1)c1ccccc1 (stereo not given)	-0.1	0	5	-1%	2.8	2	-1.5
O=C1CCC(C(=O)N2CCCCO2)CN1Cc1ccc(Cl)cc1 (stereo not given)	1.9	1	5	-2%	0.7	19	-3.0
O=C(NCCN1CCCc2ccccc21)C1CCC(=O)N(CCc2ccccc2)C1 (stereo not given)	3.1	86*	-2	/	0.7	3	-3.5
O=c1c2cc(F)ccc2sn1-c1ccccc1	3.0	48	-11	/	/	/	-3.5
Cc1c(C#N)sc(C(N)=O)c1C	0.4	/	-1	1%	1.2	5	5.9
O=C(COc1ccc(Br)cc1)N1CCC(c2ccccc2)C1 (stereo not given)	-4.3	/	-3	-1%	4.0	-7	2.5
C=CCN(CC=C)CC(=O)Nc1cccc(Oc2cnccn2)c1	-1.4	-1	-3	6%	-0.1	0	-2.0

Some of these compounds in order of molar mass, rising:
SMILES	HNF4A DNA FP	ALR H2O2 inh	Beta2AR agonist	Vif TR-FRET	RanGTP-Impb inh	Calb FLC	LANA-H2B inh
COc1cccc(Oc2ccc(C(F)(F)F)cc2N)c1	1.6	2	12	18%	-5.8	-12	-0.5
Clc1ccc(-c2nnc(NC3=NCCCCC3)o2)cc1	0.2	-5	-11	-4%	-0.8	-7	0.6
C=CCN(CC=C)CC(=O)Nc1cccc(Oc2cnccn2)c1	-1.4	-1	-3	6%	-0.1	0	-2.0
Cc1oc(C)c(C(=O)Nc2ccc(CC(=O)O)cc2)c1C(=O)Nc1ccc(CC(=O)O)cc1	-1.6	-1	-5	7%	0.0	-3	-2.0

New compounds follow.
SMILES	HNF4A DNA FP	ALR H2O2 inh	Beta2AR agonist	Vif TR-FRET	RanGTP-Impb inh	Calb FLC	LANA-H2B inh
C[n+]1ccc(C(=O)Nc2ccccc2Cl)cc1	-4.8	9	-3	/	0.0	3	3.7
CSc1ccccc1OCc1cc(C(=O)NCC(C)(C)N2CCOCC2)no1	2.0	4	-2	0%	-2.9	-4	-1.4
OC(CC#CCN1CCOCC1)(c1ccccc1)c1ccccc1	0.2	/	-8	/	3.6	-2	-4.8
Cc1ccc(OCC(=O)Nc2ccccc2C(N)=O)cc1	-0.2	-9	1	/	-2.6	3	5.3
